gsp agonist: agonists of gsp mutant (McCune-Albright syndrome); gsp mutant cells, cAMP HTRF, 30 min; control for the full effect not named in the record; Potency, µM (top dose mostly 76.9 µM), inactives show at the highest dose activation (cAMP increase), actives largely listed as activators; 340,000 tested, 0.13% active; active = well fitted activation curve with a large enough effect; inconclusive = small, poorly fitted or top-dose-only effect, or another doubt; inactive = no such curve, though single readings can be large or run the other way; cell line not stated here;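 further: phosphodiesterase inhibitor Ro 20-1724 added with compounds to block cAMP breakdown; potency means the concentration at half of the fitted maximal effect; nearly all actives have a fitted effect of over 60% in size; about a fifth of the inactives were tested at one dose only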
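Cells stably selected in G418 were plated at 2000/well, grown 16-24 hr, then given compounds in DMSO with the PDE inhibitor […] (300 uM solution added) for 30 min at 37C; cAMP was read by HTRF.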
Menin MLL FP FL: inhibitors of human menin-MLL interaction, wild-type MLL peptide; Fluorescence polarization, fluorescein-MLL peptide displacement from menin; FP activity change, % at 61.4 µM; 290,000 tested, under 10 active; AID 1766; inconclusive = falling polarisation curve, or a change in total fluorescence; inactive = total fluorescence flat and polarisation flat or rising; no compound was filed as active; the % refers to the polarisation; negative = inhibition;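 further: % of control where 0% means no effect; inhibitors lower the polarisation; unlabelled MLL peptide was the positive control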
gsp antagonist: antagonizes gsp, the McCune-Albright syndrome mutation. Potency, µM (highest dose often 76.9 µM), inactives show at the highest dose activity change, negative = inhibition, most hits filed as inhibitors. AID 624288. 340,000 tested, 0.4% active. gsp-mutant cells, cAMP HTRF, 30 min; control for the full effect not named in the record; active = falling curve of any shape with a large fitted effect; inconclusive = falling curve, mostly with a smaller effect; inactive = flat or rising curve; cell line not stated here;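 further: intracellular cAMP measured with PDE inhibitor Ro 20-1724 present during compound exposure; potency means the concentration at half of the fitted maximal effect; on the % scale 0 is the no-effect control and ±100 the full control effect; nearly all actives have a fitted effect of over 65% in size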
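Cells in G418 medium, seeded 16-24 h, 37C; buffer exchange to DPBS + 1 mM CaCl2, 0.5 mM MgCl2, 0.05% BSA; cpds in DMSO + […] (300 uM stock), 30 min 37C; HTRF cAMP detection.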
ClpP mod: qHTS Assay for Activators of ClpP; 340,000 tested, 1.9% active; Potency, µM (titrated, usually from 57.5 µM), for the others: at the highest dose activity change, negative = active; AID 651965, 2013; ATP-dependent Clp protease proteolytic subunit (Bacillus subtilis (strain 168)), P80244; purified B. subtilis ClpP, FRET peptide cleavage, 20 min; active = well fitted falling curve with a large enough effect; inconclusive = small, poorly fitted or top-dose-only effect; inactive = no such curve, though single readings can be large or run the other way; further: potency means the concentration at half of the fitted maximal effect; the source files actives as falling curves though it sought activators and does not explain the sign; nearly all actives have a fitted effect of over 65% in size; many hits overshoot -100%
Target sequence (P80244 whole entry, looked up): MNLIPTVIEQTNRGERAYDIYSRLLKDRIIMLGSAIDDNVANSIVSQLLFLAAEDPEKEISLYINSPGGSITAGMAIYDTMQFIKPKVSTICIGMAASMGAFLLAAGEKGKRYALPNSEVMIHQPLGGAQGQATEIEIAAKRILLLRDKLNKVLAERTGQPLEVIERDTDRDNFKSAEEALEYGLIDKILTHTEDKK
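Purified B. subtilis ClpP, 10 microg/mL final in Tris/HCl pH8 with KCl, BSA, glycerol and Tween-20, cleaved an Abz/nitrotyrosine-quenched decapeptide. Fluorescence (ex 320, em 430) was read at 0 and 20 min at room temperature. Delta was normalized to 5.8 microM ADEP and DMSO/no-enzyme controls.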
TRPV1 PAM: potentiators of human vanilloid receptor 1 (TRPV1); potentiation, % at 8.33 µM; AID 540277; Q8NER1; 320,000 tested, 0.02% active; TRPV1-expressing cells, Fluo-8 calcium influx, capsaicin EC20 potentiation; host cell line not named in the record; control for the full effect not named in the record; active means potentiation above 80%; inconclusive means 30% to 80%; inactive means below 30%; further: 0% is about no effect
Target sequence (Q8NER1 whole entry, looked up): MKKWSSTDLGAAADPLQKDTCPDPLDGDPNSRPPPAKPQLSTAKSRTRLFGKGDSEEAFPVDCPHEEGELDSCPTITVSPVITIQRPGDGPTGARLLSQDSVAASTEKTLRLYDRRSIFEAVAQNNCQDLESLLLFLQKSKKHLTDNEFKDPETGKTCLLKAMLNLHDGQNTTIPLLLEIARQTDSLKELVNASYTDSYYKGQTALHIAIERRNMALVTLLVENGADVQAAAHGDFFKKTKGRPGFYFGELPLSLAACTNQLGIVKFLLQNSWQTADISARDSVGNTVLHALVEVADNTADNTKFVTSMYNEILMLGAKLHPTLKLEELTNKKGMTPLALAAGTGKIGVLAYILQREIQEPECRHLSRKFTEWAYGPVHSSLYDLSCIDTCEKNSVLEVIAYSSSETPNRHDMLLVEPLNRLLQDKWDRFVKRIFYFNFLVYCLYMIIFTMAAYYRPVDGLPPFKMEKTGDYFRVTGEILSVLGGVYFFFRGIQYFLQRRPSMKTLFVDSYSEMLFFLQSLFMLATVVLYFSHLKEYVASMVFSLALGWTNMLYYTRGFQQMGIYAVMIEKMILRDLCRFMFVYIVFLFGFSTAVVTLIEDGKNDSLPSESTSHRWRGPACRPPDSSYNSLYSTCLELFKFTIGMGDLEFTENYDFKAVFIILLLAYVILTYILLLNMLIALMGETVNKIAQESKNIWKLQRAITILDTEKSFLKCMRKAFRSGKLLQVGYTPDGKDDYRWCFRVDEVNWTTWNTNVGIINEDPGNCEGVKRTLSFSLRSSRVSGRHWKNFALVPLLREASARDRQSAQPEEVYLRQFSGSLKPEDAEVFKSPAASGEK
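TRPV1-expressing cells were cultured overnight at 35.5C and loaded with Fluo-8 calcium dye for 40 to 90 min at room temperature. After a 10 s baseline, compound was added and calcium influx was read kinetically for 3 min (ex 480/em 520 nm).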
Sfp inh: Sfp phosphopantetheinyl transferase inhibition; Biochemical Sfp PPTase activity, qHTS; Potency, µM, for the others: max response, negative = inhibition, most hits filed as inhibitors; 310,000 tested, 3.5% active; active means well fitted inhibition curve with a large enough effect; inconclusive means small, poorly fitted or top-dose-only effect, or another doubt; inactive means no such curve, though single readings can be large or run the other way;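 further: the enzyme is Sfp with the accession as filed and its product quenches rhodamine fluorescence; potency means the concentration at half of the fitted maximal effect; 0% = enzyme reaction without inhibitor and -100% = no enzyme wells; top concentration of the series not given in the record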
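Step 1, compound plus 15 nM Sfp-PPTase, 15 min, room temperature. Step 2, add rhodamine-CoA (5 uM) and BHQ-2-YbbR (12.5 uM). Step 3, read 525/598 nm fluorescence at 0 and 30 min.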
D2 potentiator: positive allosteric modulators of human D2 dopamine receptor. P14416. DiscoveRx D2 beta-arrestin cells, luminescence, 90 min; 100% = 57 uM dopamine signal. potentiation, % (test concentration not listed). 360,000 tested, 0.23% active; active = potentiation of 50% or more; inconclusive = 30% to 50%; inactive = 30% or less;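 further: compound concentration not given in the record; tested on top of an EC20 dose of dopamine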
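PathHunter D2 cells, attached overnight at 37 deg C, received compound in DMSO plus dopamine at EC20 (50 nM final) for 90 min at 37 deg C. Beta-arrestin recruitment was read as luminescence after 1 h with detection reagent at ambient temperature.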
An asterisk follows results filed as active; [ ] = remark or other dose.

Screening CN(CC(=O)Nc1ccc(Cl)cc1)C(=O)CN1C(=O)C2CCCCC2C1=O (stereo not given) returned gsp agonist -33%[inhibitor], ClpP mod 1.6% and D2 potentiator -12.
`CC(C)(C)c1cc(C(=O)Nc2cccc3ccccc23)ccn1` gave gsp agonist -45%, Menin MLL FP FL -0.4, gsp antagonist 9%, ClpP mod 2.7%, TRPV1 PAM 7, Sfp inh -10% and D2 potentiator 15.
`Cc1cccc(CSC(Nc2ccc(F)cc2)=C(C#N)C#N)c1` gave gsp agonist 13%, Menin MLL FP FL 4.1, gsp antagonist inconclusive, ClpP mod 3.0%, TRPV1 PAM 1, Sfp inh 4% and D2 potentiator 20.
`Cc1ccc(NC(=O)N2CCCC2C(=O)NCc2ccc3c(c2)OCO3)cc1` (stereo not given) gave gsp agonist -30%[inhibitor], Menin MLL FP FL 0.2, gsp antagonist 4%, TRPV1 PAM -1, Sfp inh -4% and D2 potentiator -9.
`O=c1cc(-c2ccccc2)ss1` gave gsp agonist 3%, gsp antagonist 10% and D2 potentiator -9.
Cc1cccn2c(=O)c3cc(C(=O)NC4CCCCC4)sc3nc12 was read as gsp agonist 14%, Menin MLL FP FL -4.0, gsp antagonist 1%, TRPV1 PAM -4, Sfp inh -5% and D2 potentiator -1.
NC(N)=NS(=O)(=O)c1ccc(NC(=S)NC(=O)c2ccccc2)cc1 was read as gsp agonist inconclusive, Menin MLL FP FL 2.0, gsp antagonist -1%, ClpP mod 0.6%, TRPV1 PAM 9, Sfp inh 50µM* and D2 potentiator -6.
Cc1ccc(NC(=S)NC(=O)Cc2ccccc2)c(O)c1 was read as gsp agonist 5%[15.4 µM], Menin MLL FP FL -1.6, gsp antagonist 9%, ClpP mod -0.6%, TRPV1 PAM -2, Sfp inh 7% and D2 potentiator 0.
O=C(COC(=O)c1ccccc1-c1nc2ccccc2s1)NC1CCS(=O)(=O)C1 (stereo not given) was read as gsp agonist 0%, Menin MLL FP FL 1.1, gsp antagonist 8%, ClpP mod -14%, TRPV1 PAM -4, Sfp inh 8% and D2 potentiator -15.
For CCOc1cc(N2CCOCC2)c(OCC)cc1NC(=O)COC(=O)COc1ccc(C#N)cc1 the results were gsp agonist -18%[15.4 µM], gsp antagonist -18%, ClpP mod 0.3%, TRPV1 PAM -2, Sfp inh 7% and D2 potentiator 5.
O=CN(CCN(C=O)CN1CCCCC1)CN1CCCCC1 was read as gsp agonist -1%, Menin MLL FP FL 0.0, gsp antagonist 9%, ClpP mod -2.8%, TRPV1 PAM -11, Sfp inh 19% and D2 potentiator -7.
For COC(=O)CSc1nc2sccc2c(=O)n1-c1ccccc1 the results were gsp agonist -3%[15.4 µM], Menin MLL FP FL -8.3, gsp antagonist 6%, ClpP mod 6.9%, TRPV1 PAM -2, Sfp inh 13% and D2 potentiator -1.
CCOc1cc(/C=N/NC(=O)Cc2ccc(C(F)(F)F)cc2[N+](=O)[O-])c(Br)cc1OC was read as gsp agonist -1%, Menin MLL FP FL 0.2, gsp antagonist 6%, ClpP mod 1.8%, TRPV1 PAM -15, Sfp inh 3% and D2 potentiator -4.
Screening CCCN(CCC)CCCNC(=S)Nc1ccc2nc3n(c(=O)c2c1)CCCCC3 returned gsp agonist -2%, Menin MLL FP FL 6.1, gsp antagonist 10%, ClpP mod -8.0%, TRPV1 PAM 1, Sfp inh 12% and D2 potentiator -22.
`Cc1cc(=O)n2[nH]cc(-c3ccccc3)c2n1` gave gsp agonist 4%[15.4 µM], Menin MLL FP FL -0.7, gsp antagonist -11%, ClpP mod 1.7%, TRPV1 PAM 1, Sfp inh 16% and D2 potentiator -14.
Screening COc1ccc(NCc2n[nH]nc2-c2ccccc2)cc1Cl returned gsp agonist 17%, Menin MLL FP FL 1.9, gsp antagonist -17%, ClpP mod 0.7%, TRPV1 PAM 5, Sfp inh 16% and D2 potentiator -16.
Screening CCCC[C@]12Cc3cc(OC)c(OC)cc3C(O1)C1=C(O2)C(=O)c2ccccc2C1=O returned Menin MLL FP FL 12[11.7 µM], TRPV1 PAM inactive and Sfp inh -24%.
`COc1cc(C2c3c(oc4ccccc4c3=O)C(=O)N2Cc2ccncc2)ccc1O` (stereo not given) gave gsp agonist 14%, Menin MLL FP FL 0.1, gsp antagonist 2%, ClpP mod -0.7%, TRPV1 PAM inconclusive, Sfp inh -7% and D2 potentiator -4.
For CCOC(=O)N1CCN(C(=O)c2ccccc2NS(=O)(=O)c2ccc(C)cc2)CC1 the results were gsp agonist -3%, Menin MLL FP FL -6.1, gsp antagonist 5%, ClpP mod 1.6%, TRPV1 PAM -29, Sfp inh 14% and D2 potentiator 6.
For Cc1cc(C(=O)COc2cccc(-n3cnnn3)c2)c(C)n1-c1ccccc1 the results were gsp agonist 6%, Menin MLL FP FL 5.5, gsp antagonist inconclusive, ClpP mod -0.9%, TRPV1 PAM -10, Sfp inh 1% and D2 potentiator -16.
For CN(Cc1ccccc1)C(=O)COC(=O)CN1C(=O)c2ccccc2C1=O the results were gsp agonist inconclusive, gsp antagonist -6%, ClpP mod -1.3% and D2 potentiator -1.
CC(=O)Nc1ccc(NC(=O)CSc2nc(=O)n(Cc3ccncc3)c3c2CCC3)cc1 was read as gsp agonist 0%[15.4 µM], gsp antagonist 5%, TRPV1 PAM 12 and D2 potentiator -1.
`c1ccc(C2=Nc3ccccc3SC2c2nc3ccccc3[nH]2)cc1` (stereo not given) gave Menin MLL FP FL -1.3, TRPV1 PAM 5 and Sfp inh 40µM*.
For O=C(OCC(=O)N1CCc2ccccc21)c1ccc(Cl)nc1 the results were gsp agonist 18%, Menin MLL FP FL 0.8, gsp antagonist 16%, ClpP mod -4.5%, TRPV1 PAM 6, Sfp inh 12% and D2 potentiator -6.
CC12CC3CC(C)(C1)CC(CN1CCOCC1)(C3)C2 was read as gsp agonist 3%, Menin MLL FP FL 2.4, gsp antagonist -11%, ClpP mod -0.7%, TRPV1 PAM -5, Sfp inh -12% and D2 potentiator -10.
O=[N+]([O-])c1ccc(Oc2cccc(Br)c2)c2ccncc12 was read as gsp agonist 1%, Menin MLL FP FL -0.7, gsp antagonist -6%, ClpP mod 2.2%, TRPV1 PAM 24, Sfp inh inconclusive and D2 potentiator 23.
For Nc1nc(NCCOCCO)nc(NCc2ccccc2)c1[N+](=O)[O-] the results were gsp agonist 2%[15.4 µM], Menin MLL FP FL 4.6, gsp antagonist 14%, TRPV1 PAM 2, Sfp inh -3% and D2 potentiator -2.
`CC(C)COc1ccc(Br)cc1CNC(C)(C)C` gave gsp agonist -26%, Menin MLL FP FL -0.3, gsp antagonist -14%, ClpP mod 0.0%, TRPV1 PAM -2, Sfp inh 12% and D2 potentiator -8.
`CNS(=O)(=O)c1cccc(C(=O)OCC(=O)c2ccc3[nH]c(=O)[nH]c3c2)c1` gave gsp agonist 5%, gsp antagonist 7%, ClpP mod -8.3% and D2 potentiator 11.
For COc1ccc(C(=O)CC(SCC(NC(C)=O)C(=O)O)c2ccc(Cl)cc2)cc1OC (stereo not given) the results were gsp agonist -1%, Menin MLL FP FL -5.0, gsp antagonist -5%, ClpP mod -5.9%, TRPV1 PAM 15, Sfp inh -5% and D2 potentiator -3.
Cc1cc(C)c(C(=O)CSc2nnc(C)c(=O)[nH]2)cc1C was read as gsp agonist -2%, Menin MLL FP FL 1.3, gsp antagonist -11%, ClpP mod -1.0%, TRPV1 PAM 9, Sfp inh 8% and D2 potentiator -40.
For Cc1cccc(NC(=O)C2CCCN(S(=O)(=O)c3c(C)nn(C)c3C)C2)c1 (stereo not given) the results were gsp agonist inconclusive, gsp antagonist -3%, ClpP mod 2.7% and D2 potentiator -4.
For COc1ccc(/C=N/NC(=O)c2ccn[nH]2)cc1COc1ccc(Cl)cc1Cl the results were gsp agonist 6%, Menin MLL FP FL 1.3, gsp antagonist -10%, ClpP mod -8.2%, TRPV1 PAM -10, Sfp inh -2% and D2 potentiator 11.
For CCN(CC)C(=O)C1=C(C)N(CCC2=CCCCC2)C(=O)C(CC(=O)NCc2cccc3ccccc23)C1 (stereo not given) the results were gsp agonist -18%, ClpP mod 1.6% and D2 potentiator 3.
CC(=O)N1C[C@H]2CON(C)[C@H]2C[C@H]1c1ccccc1Br was read as gsp antagonist 0%, ClpP mod 1.0% and D2 potentiator 0.
Screening CCN(CC)CCN(C(=O)c1ccc(Br)s1)c1nc2cc3c(cc2s1)OCCO3 returned gsp agonist 4%[15.4 µM], Menin MLL FP FL -7.1, gsp antagonist -7%, TRPV1 PAM -7, Sfp inh -21% and D2 potentiator -25.
CCN1CCCC1CNC(=O)c1cc2c(OC)cccc2[nH]1 (stereo not given) was read as gsp agonist -56%[inhibitor], Menin MLL FP FL -2.5, gsp antagonist 8%, ClpP mod 3.5%, TRPV1 PAM 3, Sfp inh 11% and D2 potentiator -24.
Screening CCCOC(=O)CSc1nnc(-c2ccc(Cl)cc2Cl)o1 returned gsp agonist -25%, Menin MLL FP FL 0.6, gsp antagonist -1%, ClpP mod -0.7%, TRPV1 PAM -21, Sfp inh -13% and D2 potentiator -2.
Screening Cc1ccc(C)c(N=Nc2nc3ccccc3n2C)c1 returned gsp agonist -48%[inhibitor], Menin MLL FP FL -1.5, gsp antagonist -23%, ClpP mod 7.6%, TRPV1 PAM -14, Sfp inh -14% and D2 potentiator -42.
Cc1cc(C(=O)N2CCN(c3ncccn3)CC2)c2cc(F)ccc2n1 was read as gsp agonist 5%, Menin MLL FP FL 2.6, gsp antagonist 6%, ClpP mod -8.6%, TRPV1 PAM 5, Sfp inh 7% and D2 potentiator 2.
`CCCCNC(=O)C(=O)NC(C)CCc1ccccc1` (stereo not given) gave gsp agonist inconclusive, Menin MLL FP FL -2.3, gsp antagonist -10%, ClpP mod -0.4%, TRPV1 PAM -4, Sfp inh 11% and D2 potentiator -12.

Pulled by structure from the entries so far (two):
For Nc1nc(NCCOCCO)nc(NCc2ccccc2)c1[N+](=O)[O-] the results were gsp agonist 2%[15.4 µM], Menin MLL FP FL 4.6, gsp antagonist 14%, TRPV1 PAM 2, Sfp inh -3% and D2 potentiator -2.
For CN(Cc1ccccc1)C(=O)COC(=O)CN1C(=O)c2ccccc2C1=O the results were gsp agonist inconclusive, gsp antagonist -6%, ClpP mod -1.3% and D2 potentiator -1.

Bioassay records: PubChem, National Center for Advancing Translational Sciences (NCATS)
